2A firefly: lowers the firefly signal of an FMDV 2A StopGo reporter; HEK cells with a luciferase reporter of 2A StopGo recoding; Potency, µM (titrated, usually from 57.5 µM), for the others: at the highest dose signal change, negative = less light; 120,000 tested, 0.23% active; AID 1745856; active = well fitted falling curve with a large enough effect; inconclusive = small, poorly fitted or top-dose-only effect; inactive = no such curve, though single readings can be large or run the other way; note: nearly all actives have a fitted effect of over 60% in size; overnight with compound
2A Renilla: FMDV 2A StopGo reporter, Renilla signal | AID 1745857 | HEK cells with a luciferase reporter of 2A StopGo recoding | 120,000 tested, 0.32% active | Potency, µM (titrated, usually from 57.5 µM), inactives show top-dose signal change, negative = less light; active means well fitted falling curve with a large enough effect; inconclusive means small, poorly fitted or top-dose-only effect; inactive means no such curve, though single readings can be large or run the other way; note: nearly all actives have a fitted effect of over 55% in size; overnight with compound
The depositor's hits bear a star; & = joins results of further samples; [ ] = another dose, or the depositor's remark. % is set by controls: 0 for no effect and ±100 for the full control effect; potency is the fitted concentration of half-maximal effect. These rows are one share of the data. The share of hits here may be higher or lower than overall.

For Fc1ccc(Nc2nc(NC3CCCC3)nc3c2cnn3-c2ccccc2)cc1 the results were 2A firefly 12.6% and 2A Renilla 24.3%.
`CC1(C(=O)Nc2cccc3ncccc23)Cc2ccccc2C(=O)O1` (centres undefined) gave 2A firefly 3.9% and 2A Renilla -5.4%.
For Cc1ccc(-c2nc(C)c(CCNC(=O)C(=O)Nc3ccc4c(c3)OCCO4)s2)cc1 the results were 2A firefly 22.2% and 2A Renilla -2.8%.
C=CCNc1oc(/C=C/c2cc(OC)c(OC)c(OC)c2)nc1C#N was read as 2A firefly 0.0% and 2A Renilla 29.8%.
Screening CCOc1ccc(NC(=O)CN2CCSc3ccc(S(=O)(=O)N4CCCC4)cc32)cc1 returned 2A firefly -12.2% and 2A Renilla -2.5%.
For O=[N+]([O-])c1cc(-c2nc(-c3cccnc3)no2)ccc1NCc1ccccc1 the results were 2A firefly 7.2% and 2A Renilla -16.4%.
Screening CCOC(=O)COc1ccc2c(C)cc(=O)oc2c1C returned 2A firefly 1.7% and 2A Renilla -7.4%.
`O=C(CSc1nnc(COc2ccccc2Cl)n1C1CC1)c1c[nH]c(C(=O)N2CCCC2)c1` gave 2A firefly 60.6%[activator] and 2A Renilla 64.4%[activator].
COCCSCC(=O)N1CCOC(C)(C)C1 was read as 2A firefly 10.0% and 2A Renilla 13.6%.
O=C(Nc1ccccc1C(=O)NCc1ccccc1)c1cccnc1 was read as 2A firefly 6.9% and 2A Renilla 14.5%.
Cc1ccc(Cc2cnc(NC(=O)c3cc(=O)c4cc(C)cc(C)c4o3)s2)cc1 was read as 2A firefly 1.8% and 2A Renilla -13.0%.
`CCN(CC)CCCNC(=O)CCC(=O)NNc1nc2ccccc2c2nc(C)nn12` gave 2A firefly inconclusive and 2A Renilla -18.0%.
`CC1Cn2c(C(=O)NCc3cccc(Br)c3)cc3cccc(c32)S1` (centres undefined) gave 2A firefly -16.5% and 2A Renilla -7.9%.
C=C(C)CC(NC(C)c1ccccc1)c1ccco1 (centres undefined) was read as 2A firefly 11.1% and 2A Renilla 7.9%.
CCC1CN(C(=O)N2CCC(C(=O)NCc3ccc(N(C)C)cc3)CC2)c2ccccc2O1 (centres undefined) was read as 2A firefly -20.2% and 2A Renilla -1.2%.
O=C(O)c1ccc(CNCc2ccsc2)cc1 was read as 2A firefly 10.5% and 2A Renilla 15.3%.
`CCOc1ccc(-c2nc(Cn3ccn4nc(-c5ccc(OCC)c(Cl)c5)cc4c3=O)c(C)o2)cc1` gave 2A firefly -8.0% and 2A Renilla -8.0%.
Screening CN(c1ccccc1C(=O)O)S(=O)(=O)c1ccc2[nH]c(=O)oc2c1 returned 2A firefly 21.0% and 2A Renilla -4.3%.
`O=C(NC1CC(=O)N(c2ccc(Cl)cc2)C1)c1ccc(S(=O)(=O)N2CCCC2)cc1` (centres undefined) gave 2A firefly -10.5% and 2A Renilla -13.0%.
`Cc1nn(C)c2c1c(-c1ccccc1)cc(=O)n2Cc1ccc(F)cc1Cl` gave 2A firefly -9.2% and 2A Renilla -3.0%.
COc1cc2[nH]c(=O)n(Cc3ccc(C(=O)N4CCN(c5cccc(C)c5C)CC4)cc3)c(=O)c2cc1OC was read as 2A firefly -5.6% and 2A Renilla -7.0%.
`COc1ccc(CCNC(=O)/C(=N/O)c2ccccc2)cc1OC` gave 2A firefly 14.6% and 2A Renilla 10.3%.
For CC12CCCC(C(N)=O)(CCC1)C2 the results were 2A firefly -3.4% and 2A Renilla 1.1%.
`COc1ccc(C(=O)OCC(=O)NCc2ccco2)c(OC)c1` gave 2A firefly 20.9% and 2A Renilla -7.4%.
Screening Cc1cc(N2CCCCC2)nc(Nc2ccc(NC(=O)Nc3ccccc3)cc2)n1 returned 2A firefly inconclusive and 2A Renilla inconclusive.
`COc1ccc(NC(=O)c2ccc3c(=O)n4nc(Nc5cc(C)ccc5C)sc4nc3c2)cc1` gave 2A firefly -8.3% and 2A Renilla -7.2%.
CC(=O)N1CCCC1c1nc2ccccc2n1Cc1cccc(Cl)c1 (centres undefined) was read as 2A firefly -9.8% and 2A Renilla 5.2%.
For CCCNC(=O)CSc1nc(-c2ccc(OC)cc2)cc(C(F)(F)F)n1 the results were 2A firefly 1.0%&-14.3% and 2A Renilla -0.1%&-4.2%.
Screening O=C(CCSCc1cccc(F)c1)NCCc1ccccc1 returned 2A firefly 12.8% and 2A Renilla -16.1%.
CCN1CCN(c2ncnc3c2cnn3-c2ccc(C)c(C)c2)CC1 was read as 2A firefly 107.9%[activator] and 2A Renilla 1.1%.
Screening Cc1cc(C(=O)Cn2c(Cl)nc3c2c(=O)n(C)c(=O)n3C)c(C)n1C1CC1 returned 2A firefly 8.6% and 2A Renilla -0.3%.
For O=C1c2oc3ccccc3c(=O)c2C(c2ccccc2)N1Cc1ccc2c(c1)OCO2 (centres undefined) the results were 2A firefly -12.4% and 2A Renilla inconclusive.
`O=C(NCCc1ccc(Cl)cc1)c1cc2c(s1)-c1ccccc1OC2` gave 2A firefly 32.8%[activator] and 2A Renilla 7.5%.
Screening Cc1cc(C)c(NC(=O)CSc2nnc3[nH]c(=O)cc(C)n23)c(C)c1 returned 2A firefly -23.2% and 2A Renilla -11.6%.
Screening COc1ccc(-c2c(C)c3ccc(OC(C)=O)c(C)c3oc2=O)cc1 returned 2A firefly 16.9% and 2A Renilla 12.8%.
`CCCCN(CC)CCCNC(=O)Cn1nc(CC)n2c(cc3sccc32)c1=O` gave 2A firefly -13.3% and 2A Renilla -7.9%.
`O=C(O)c1cc(-c2ccccc2)nc2ccc(F)cc12` gave 2A firefly 5.9% and 2A Renilla inconclusive.
Screening O=CN1CCN(C(=O)CCn2c(-c3ccccc3)cc3ccccc32)CC1 returned 2A firefly -1.5% and 2A Renilla 0.0%.
`CCOC(=O)c1c(NC(=O)c2ccc(S(=O)(=O)N(CCOC)CCOC)cc2)sc2c1CC(C)(C)NC2(C)C` gave 2A firefly -14.0% and 2A Renilla 14.0%.
`COc1ccc(C(=O)c2oc3ccccc3c2NC(=O)c2ccc(F)cc2)cc1` gave 2A firefly -23.0% and 2A Renilla -17.7%.
Screening Cc1nc(CCNC(=O)N(C)Cc2ccc3c(c2)OCO3)cs1 returned 2A firefly -7.2% and 2A Renilla -3.8%.
Cc1ccccc1-c1nc2ccc3ccccc3c2c2c1CCCC2 was read as 2A firefly 0.0% and 2A Renilla -11.6%.
Screening CCCCn1c(N)c(N(CC)C(=O)c2cc(-c3ccc(OC)cc3)nc3ccccc23)c(=O)[nH]c1=O returned 2A firefly -0.1% and 2A Renilla -0.8%.
Cc1cc(C)cc(NC(=O)CNc2nc(Nc3ccccc3)nc(Nc3ccccc3)n2)c1 was read as 2A firefly 24.8% and 2A Renilla -13.3%.
`CC(CNC(=O)c1nn(C)c(=O)c2ccccc12)c1ccccc1` (centres undefined) gave 2A firefly 23.7% and 2A Renilla 30.5%.
COc1ccc(C(=O)Nc2ccc3oc(C)nc3c2)c(OC)c1OC was read as 2A firefly 28.8% and 2A Renilla 29.1%.
CCSC(SCC)C(O)C(O)C(O)C(C)O (centres undefined) was read as 2A firefly 9.2% and 2A Renilla 11.4%.
For COc1ccc(CNc2oc(-c3ccc(COc4ccccc4C)o3)nc2C#N)cc1 the results were 2A firefly inconclusive and 2A Renilla inconclusive.
For O=C1NC(=O)/C(=C/c2c(OCc3ccc(C(=O)O)cc3)ccc3ccccc23)N1 the results were 2A firefly -8.9% and 2A Renilla -8.0%.
`N#Cc1cccc(CSc2nnnn2-c2cccc(F)c2)c1` gave 2A firefly 11.5% and 2A Renilla 16.1%.
Screening CCOC(=O)c1ccc(OC(=O)c2cn(-c3ccc(C)cc3)c(=O)c3ccccc23)cc1 returned 2A firefly -29.8% and 2A Renilla -18.2%.
COc1ccccc1NC(=O)COc1nc(CC(C)C)c2c(c1C#N)CCC2 was read as 2A firefly -1.1% and 2A Renilla -2.3%.
Fc1cccc(-n2nnnc2SCc2cc(Cl)c3c(c2)OCCCO3)c1 was read as 2A firefly -28.2% and 2A Renilla inconclusive.
COc1cc(C)c(C)cc1S(=O)(=O)Nc1ccc2c(c1)N(C(=O)c1cccnc1)CC2 was read as 2A firefly -22.8% and 2A Renilla 154.3%[activator].
Screening CCOc1cccc(CNCc2ccco2)c1OCc1ccccc1 returned 2A firefly inconclusive and 2A Renilla inconclusive.
`Cc1[nH]c(C)c(S(=O)(=O)NCCC(=O)NCc2ccccc2Cl)c1C(=O)N1CCCCC1` gave 2A firefly 2.2% and 2A Renilla 19.7%.
For CC(Sc1ccccn1)C(=O)NN=C1CCCCC1 (centres undefined) the results were 2A firefly 35.2% and 2A Renilla 28.6%.
COc1ccc(CCNC(=O)Cc2c(C)nn(C)c2C)cc1OC was read as 2A firefly 13.7% and 2A Renilla -4.2%.
For COc1ccc(S(=O)(=O)Nc2ccc(CCc3nc4ccccc4n3C)cc2)cc1 the results were 2A firefly inconclusive and 2A Renilla -78.3%.
`COc1ccc(C)cc1N(C)C(=O)c1c2c(nc3ccccc13)C(=O)N(C1CCCCC1)C2` gave 2A firefly inconclusive and 2A Renilla 9.7%.
COc1ccc(C(=O)NCC(c2cccnc2)N2CCc3ccccc32)cc1 (centres undefined) was read as 2A firefly -25.3% and 2A Renilla inconclusive.
COc1ccc(C2=NS(=O)(=O)N(C)C(C(=O)N3CCN(C)CC3)=C2)cc1OC was read as 2A firefly 14.2% and 2A Renilla 6.9%.
Screening COc1ccc(Cl)cc1NC(=O)c1cc(S(=O)(=O)N2CCc3ccccc32)cn1C returned 2A firefly -12.2% and 2A Renilla 3.0%.
For O=C(Nc1ccc(Br)cc1)C1CCN(c2ncccn2)CC1 the results were 2A firefly 20.3% and 2A Renilla 2.4%.
CCOC(=O)c1ccc(NCc2c(Cl)cccc2Cl)cc1 was read as 2A firefly 34.9%[activator] and 2A Renilla 40.1%[activator].
Screening CC(C)c1ccc(NC(=O)Cn2cc(S(=O)(=O)N3CCN(c4ccccc4F)CC3)c3ccccc3c2=O)cc1 returned 2A firefly -12.6% and 2A Renilla 4.2%.
For CCC/C(=N/NC(=O)C(C)(C)O)c1ccccc1 the results were 2A firefly 1.1% and 2A Renilla 13.3%.
`COc1cc(C)c(NC(=O)C(C)Oc2ccc(F)cc2)cc1OC` (centres undefined) gave 2A firefly 17.0% and 2A Renilla 3.1%.
COc1cc(-c2nc3sccn3c2Nc2c(C)cccc2C)ccc1O was read as 2A firefly 44.4%[activator] and 2A Renilla -1.4%.
CCOc1ccccc1CNC(=O)Cn1ncn2nc(-c3cccs3)cc2c1=O was read as 2A firefly 58.1%[activator] and 2A Renilla 73.6%[activator].
For O=C(Cc1n[nH]c(=O)c2ccccc12)NCc1ccccc1CN1CCCC1 the results were 2A firefly -1.0% and 2A Renilla 4.2%.
COc1ccc(-n2nnc(C(=O)Nc3ccccc3C(F)(F)F)c2N)cc1 was read as 2A firefly 100.5%[activator] and 2A Renilla 4.6%.
`O=C(NCc1ccccc1)c1ccc(-c2ccccc2)s1` gave 2A firefly 116.9%[activator] and 2A Renilla 0.0%.
For CNCc1cc(Br)c(OCc2ccccc2)c(OC)c1 the results were 2A firefly 19.0% and 2A Renilla 2.1%.
Cc1ccccc1-c1nc(CS(=O)(=O)CC(=O)Nc2c(C)cccc2C)c(C)o1 was read as 2A firefly -5.1%&2.3% and 2A Renilla -3.2%&-2.8%.

3 compounds out of the list, arranged by number of heavy atoms, ascending:
For CCC/C(=N/NC(=O)C(C)(C)O)c1ccccc1 the results were 2A firefly 1.1% and 2A Renilla 13.3%.
CCOC(=O)c1ccc(NCc2c(Cl)cccc2Cl)cc1 was read as 2A firefly 34.9%[activator] and 2A Renilla 40.1%[activator].
Screening CC(C)c1ccc(NC(=O)Cn2cc(S(=O)(=O)N3CCN(c4ccccc4F)CC3)c3ccccc3c2=O)cc1 returned 2A firefly -12.6% and 2A Renilla 4.2%.

Later entries:
O=C(O)c1ccc2cc(C(=O)O)[nH]c2c1 was read as 2A firefly 22.8% and 2A Renilla 1.2%.
Screening CC(C)(C)C(=O)NC1CC(=O)N(c2ccc3c(c2)OCCO3)C1 (centres undefined) returned 2A firefly -3.9% and 2A Renilla -1.3%.
`Cc1cccc(NC(=O)c2cnn(-c3ccccc3)c2-n2cccc2)c1C` gave 2A firefly -10.0% and 2A Renilla -11.0%.
`CN(C)c1ccc([N+](=O)[O-])c2cnccc12` gave 2A firefly 1.5% and 2A Renilla -8.7%[1.06 µM].
Screening CCOC(=O)c1noc2nc(C)n(CC(=O)Nc3cc(OC)ccc3OC)c(=O)c12 returned 2A firefly 4.4% and 2A Renilla -5.2%.
`CCN(CC)S(=O)(=O)c1ccc(=O)n(Cc2ncc(-c3ccccc3)o2)c1` gave 2A firefly 3.7% and 2A Renilla -1.2%.

Compounds shown so far that have an NH in an aromatic ring:
`O=C(CSc1nnc(COc2ccccc2Cl)n1C1CC1)c1c[nH]c(C(=O)N2CCCC2)c1` gave 2A firefly 60.6%[activator] and 2A Renilla 64.4%[activator].
Screening CN(c1ccccc1C(=O)O)S(=O)(=O)c1ccc2[nH]c(=O)oc2c1 returned 2A firefly 21.0% and 2A Renilla -4.3%.
COc1cc2[nH]c(=O)n(Cc3ccc(C(=O)N4CCN(c5cccc(C)c5C)CC4)cc3)c(=O)c2cc1OC was read as 2A firefly -5.6% and 2A Renilla -7.0%.
Screening Cc1cc(C)c(NC(=O)CSc2nnc3[nH]c(=O)cc(C)n23)c(C)c1 returned 2A firefly -23.2% and 2A Renilla -11.6%.
Screening CCCCn1c(N)c(N(CC)C(=O)c2cc(-c3ccc(OC)cc3)nc3ccccc23)c(=O)[nH]c1=O returned 2A firefly -0.1% and 2A Renilla -0.8%.
`Cc1[nH]c(C)c(S(=O)(=O)NCCC(=O)NCc2ccccc2Cl)c1C(=O)N1CCCCC1` gave 2A firefly 2.2% and 2A Renilla 19.7%.
For O=C(Cc1n[nH]c(=O)c2ccccc12)NCc1ccccc1CN1CCCC1 the results were 2A firefly -1.0% and 2A Renilla 4.2%.
O=C(O)c1ccc2cc(C(=O)O)[nH]c2c1 was read as 2A firefly 22.8% and 2A Renilla 1.2%.
